Screening data deposited in PubChem by National Center for Advancing Translational Sciences (NCATS).
HSD17B inh: qHTS Assay for Inhibitors of HSD17B4, hydroxysteroid (17-beta) dehydrogenase 4 | 75,000 tested, 7.6% active | recombinant HSD17B10, NADH fluorescence kinetic; many of its hits are not listed in these tables | 3-hydroxyacyl-CoA dehydrogenase type-2 (Homo sapiens), Q99714 | AID 893, 2007 | Potency, µM (doses to about 57.1 µM), for inactives: at the top dose activity change, negative = inhibition, actives largely listed as inhibitors; active = well fitted inhibition curve with a large enough effect; inconclusive = small, poorly fitted or top-dose-only effect; inactive = no such curve, though single readings can be large or run the other way;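 note: the protocol describes HADH2 (HSD17B10) and not the HSD17B4 of the title; nearly all actives have a fitted effect of over 70% in size; most hits overshoot -100% by far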
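His-tagged E. coli-expressed HADH2 at 20 nM in 100 mM Tris-HCl pH 9.0 with 0.01 % Tween-20, preincubated 15 min with compound at room temperature. Reaction with 1 mM NAD+ and 90 uM beta-hydroxybutyryl coenzyme A; NADH fluorescence (360/450 nm) read kinetically over 4 min, last minus first point.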
Numbers without * were called inactive; ? = inconclusive; & = joins results of further samples; [ ] = dose if it differs, or a comment. % is set by controls: 0 for no effect and ±100 for the full control effect; potency is the fitted concentration of half-maximal effect. The list is partial; the hit share may differ from the screen's.

SMILES	HSD17B inh
O=C(O)c1ccc(Oc2nc3ccccc3s2)cc1	-5.7%[11.4 µM]
CN(C)c1ccc(-c2nnn(CC(=O)Nc3ccccc3N3CCOCC3)n2)cc1	?
Cn1c(SCC(=O)N2CCOCC2)nc2sc3c(c2c1=O)CCCC3	0.9%
COc1cccc(-c2cc(C(=O)N3CCN(c4ncccn4)CC3)c3ccccc3n2)c1	-8.3%
Cc1nnc(SC(C)C(=O)Nc2ccc3c(c2)OCCO3)s1 (stereo unspecified)	1.4%
CCCC(=O)Nc1ccc(Cl)c(NC(=O)c2ccc(Br)o2)c1	67.3%[activator]
COc1cccc(N2C(=O)CC(N3CCC(c4nc5ccccc5[nH]4)CC3)C2=O)c1 (stereo unspecified)	-13.9%
O=C(NCC(=O)N(c1cccnc1)C(C(=O)NC1CCCCC1)c1cccnc1)c1ccco1 (stereo unspecified)	8.6%
Cc1cc(NC(=O)CCC(=O)N(c2cccc(F)c2)C(C(=O)NC2CCCC2)c2ccncc2)no1 (stereo unspecified)	3.5%
Cc1cccc(-c2nnc3sc(-c4ccccc4)nn23)c1	7.7%
N=c1ccn2c(n1)O[C@@H]1[C@@H](O)[C@H](CO)O[C@H]12	-7.0%
C=CCn1c(Cc2csc(N)n2)nnc1SCC(=O)OCC	-4.5%
COc1ccc(CCN(C)C(=O)CSc2nccn2C)cc1OC	8.3%
Cc1oc(-c2cccs2)nc1CS(=O)CC(=O)NCCc1ccccc1 (stereo unspecified)	25.1µM*
c1ccc2sc(-c3ccc4c(c3)OCO4)nc2c1	25.1µM*
COc1ccc(N(CC(=O)Nc2cc(C)ccc2OC)S(=O)(=O)c2c(C)noc2C)cc1	-10.4%
Cn1c(=S)c2[nH]c(SCc3cccnc3)nc2n(C)c1=O	-22.2%[11.4 µM]
Cc1cc2c(c(SCC(=O)N(C)c3ccccc3)n1)C(=O)OC2	5.2%
Cc1ccc(S(=O)(=O)Cc2cccc(C(=O)N3CCOCC3)c2)cc1	4.5%
O=[N+]([O-])c1ccc2c(c1)S(=O)c1ccccc1-2 (stereo unspecified)	6.2%[11.4 µM]
COc1ccc(C(=O)CC(=O)O)c2c1C=CC(C)(C)O2	-14.1%
CCOCCCNC(=O)CCNC(=O)c1cc(OC)c(OC)c(OC)c1	2.0%
CN1C(=O)/C(=C2\SC(=S)N(CC3CCCO3)C2=O)c2ccccc21 (stereo unspecified)	18.3%
CCn1c(SCc2ccc(C#N)cc2)nnc1-c1cccc(Cl)c1	-7.0%
O=C(NCc1ccccc1)C1CCN(C(=O)NCc2ccccc2)CC1	-9.5%
O=C(CC1CCCCC1)Nc1c2c(nn1-c1ccc(F)cc1)CS(=O)(=O)C2	-4.4%
CCn1cc(C(=O)Nc2ccccc2C(=O)OC)c(=O)c2ccc(C)nc21	5.3%
CCN(CC)S(=O)(=O)c1cccc(S(=O)(=O)c2cccc(S(=O)(=O)N(CC)CC)c2)c1	-0.6%
CCC(=O)N1CCc2cc(S(=O)(=O)CCC(=O)NCCc3ccc(OC)c(OC)c3)ccc21	-3.7%
CCOC(=O)C(C)Sc1nc2c(cnn2-c2ccc(C)cc2)c(=O)[nH]1 (stereo unspecified)	8.9%
COc1ccccc1OCc1nc2c3c(-c4ccccc4)c(-c4ccccc4)oc3ncn2n1	-12.5%
Cc1ccc(NC(=O)CCN2CCc3ccccc3C2)cc1	-4.2%
CCCS(=O)(=O)N1CCN(C(=O)c2cccc(OC)c2)CC1	0.5%
CN1CCN(S(=O)(=O)c2cccc(C(=O)Nc3sc4c(c3C(N)=O)CCCC4)c2)CC1	-23.4%
CCCn1nnc(NC(=O)COc2ccccc2Cl)n1	6.7%
OC[C@@H]1O[C@@H](n2cnc3c(N[C@@H]4C[C@@H]5CC[C@H]4C5)ncnc32)[C@@H](O)[C@H]1O	-4.2%
CO[C@@H]1COC(=O)C/C=C\[C@H](C)COC(=O)[C@H](C)NC(=O)C/C=C\[C@H]1C	6.1%[11.4 µM]
CN(C)c1ccnc2sc3c(=O)n(-c4ccccc4)cnc3c12	8.2%
O=C(NC1=NCCS1)c1cccc(S(=O)(=O)N2CCCCC2)c1	0.7%
C=CCNC(=O)c1ccccc1NS(=O)(=O)c1ccccc1	-9.6%
O=C(NCc1ccc2c(c1)OCO2)C1CCCN(S(=O)(=O)c2cccc3cccnc23)C1 (stereo unspecified)	3.6%
O=S(=O)(c1ccc2c(c1)C(=NO)c1cc(S(=O)(=O)N3CCCCC3)ccc1-2)N1CCCCC1	31.6µM*
O=C(c1cnccn1)N1CCC2(CCCN(c3ncccn3)C2)CC1	?
CNC(=O)c1c(C)nc(SCC(=O)NCc2ccc(OC)cc2)c(C#N)c1-c1ccco1	-7.9%
CN(c1ccc(C(=O)N2CCCCC2)cc1)S(C)(=O)=O	10.7%
CC1CCN(S(=O)(=O)c2ccc3c(c2)CCN3C(=O)CCC(=O)O)CC1	-3.1%
CCN(CC)C(=O)CSc1nnc(-c2ccccc2)n1-c1ccccc1	4.3%
CC(NC(=O)Nc1ccccc1C(F)(F)F)C1CCCO1 (stereo unspecified)	0.9%
CC(C)N1C(=O)CN(C2CCCCCC2)C(=O)C1c1ccccc1F (stereo unspecified)	2.9%
O=c1c2ccccc2ncn1C1CCCCC1	5.1%
CC1(C)Cc2c(sc(NC(=O)c3ccco3)c2C#N)C(C)(C)N1	-6.8%
CCOc1ccc(CCNC(=O)c2oc3c(c2C)-c2[nH]ncc2CC3)cc1OCC	-4.3%
CC1=C(C#N)C(c2cn(-c3ccccc3)nc2-c2cccs2)C(C#N)=C(C)N1	?
CCOC(=O)C1CCN(Cc2c(F)cccc2Cl)CC1	4.3%
O=C(O)c1c(Cl)cccc1Cl	2.3%
CCOC(=O)C1=C(N2CCCCC2)c2cc3c(n2C1=O)CCCC3	-8.9%
COc1cc(C(=O)NCc2nnc(SCC(=O)N3CCCCC3)o2)cc(OC)c1OC	8.1%
CCOc1ccc2[nH]c(=O)c(CN(Cc3ccc(C)cc3)C(=O)N3CCCC3)cc2c1	?
c1ccc2c(-c3ccncc3)c[nH]c2c1	-10.1%
COc1cccc(-n2c(SCc3c(C)noc3C)nnc2-c2cccc(S(=O)(=O)N(C)C)c2)c1	4.7%

Going on with the list:
SMILES	HSD17B inh
C#CCOc1ccc(Cl)cc1/C=N/O	-1.5%
O=C(NCCN1C(=O)C2C3C=CC(C3)C2C1=O)Nc1cccnc1 (stereo unspecified)	2.9%
COc1ccc(-n2c(Cc3cccn3C)nnc2SCC(=O)Nc2cccc(Cl)c2)cc1	-13.9%
Cc1ccc(-n2c(Cc3cccn3C)nnc2SCC(=O)Nc2cc(C)on2)cc1	5.2%
CS(=O)(=O)c1ccc(C(=O)NC2CCOC2=O)cc1 (stereo unspecified)	16.0%
COc1ccc(C(C)=O)cc1COC(=O)c1c(C)noc1C	3.4%
COc1ccccc1N(CC(=O)Nc1cc(C)on1)S(=O)(=O)c1cccs1	-5.6%
O=C(c1n[nH]c(=O)c2ccccc12)N1CCOCC1	9.3%
Cc1c2cc[n+](CCN3CCCCC3)cc2c(C)c2c1[nH]c1ccc(O)cc12	5.1%[11.4 µM]
COC(=O)C/C=C\[C@@H](C)[C@@H](/C=N\OC[C@@H]1O[C@H](c2ccccc2)C=C[C@@H]1Oc1ccc(OC)cc1)OC	-1.8%[11.4 µM]
Cc1ccccc1-n1nnc2c(=O)oc3ccccc3c21	15.2%
COc1ccccc1CN1CCCC2(CCNCC2)C1	3.3%
O=C(c1cc(-c2ccco2)nn1-c1cccc(Cl)c1)N1CCCCC1	?
CNC(=O)c1ccc(Oc2ccc(C(=O)NC)cc2)cc1	12.2%
Cc1ccc(S(=O)(=O)N(CC(=O)NCc2ccco2)Cc2ccc(F)cc2)cc1	-17.8%
CC(C)NCC(O)c1ccc2ccccc2c1 (stereo unspecified)	-0.3%
c1ccc(-c2n[nH]c(-c3ccccn3)n2)nc1	?
O=C(NCc1ccco1)C1CCCN1C(=O)NCc1ccccc1 (stereo unspecified)	3.7%
COc1ccccc1C1CC(c2ccccc2)Nc2ncnn21 (stereo unspecified)	2.4%
C=CCOc1cccc(C2C(C(=O)c3ccc(C)o3)=C(O)C(=O)N2Cc2ccncc2)c1 (stereo unspecified)	0.4%
Cc1cccc(C)c1OCc1nnc(SCC(=O)Nc2nccs2)o1	7.5%
CCn1c(SCC(=O)Nc2ccc(N(C)C)cc2)nnc1-c1cccc(C)c1	-6.3%
COC(=O)[C@@H]1C[C@@]2(O)[C@H](O)[C@H](O)[C@H](O)C[C@H]2N1Cc1cc(F)ccc1F	-4.7%
CC(C)(C)OC(=O)NCCc1nnc(SCC(=O)Nc2cccc(Cl)c2)o1	3.2%
CC1(O)c2ccccc2C(=O)N1CCc1ccccc1F (stereo unspecified)	13.2%
CN(C)S(=O)(=O)c1ccc(N2CCCC2)c(C(=O)Nc2ccccc2N2CCOCC2)c1	-1.3%
CCN(CCCNC(=O)CCCN1C(=O)COc2ccc(C)cc21)c1cccc(C)c1	-11.7%
Cn1c(C(=O)N2CCCC(C(=O)NCc3cccs3)C2)cc2sccc21 (stereo unspecified)	9.8%
Cc1nn(Cc2ccccc2Cl)c2sc(C(=O)OC3CCCC3=O)cc12 (stereo unspecified)	-11.6%
COC(=O)CN1C(=O)C(O)(CC(=O)c2ccc(C)cc2)c2ccccc21 (stereo unspecified)	-8.7%
CCOC(=O)C1CCc2sc(N)c(C#N)c21 (stereo unspecified)	-4.5%
CCSc1nnc(NC(=O)c2cc3c(s2)CCCC3)s1	?
Cc1c(C(=O)NC2CCCc3ccccc32)oc2ccc(S(=O)(=O)N3CCOCC3)cc12 (stereo unspecified)	-6.2%
COc1ccccc1N1CCN(C(CNS(=O)(=O)c2ccccc2)c2cccnc2)CC1 (stereo unspecified)	3.5%
O=C(CCCCCN1C(=O)c2ccccc2C1=O)Nc1nccs1	-0.5%
CC(C)(C)N1C(=O)[C@H]2[C@H]3[C@H](O)[C@H](O)C/C(=N/OC[C@@H](O)COCc4ccco4)[C@@H]3CC[C@@H]2C1=O	2.3%[11.4 µM]
O=C(Cn1nc(Cc2cccnc2)c2ccccc2c1=O)NCC1COc2ccccc2O1 (stereo unspecified)	8.0%
CSCCC(NC(=O)C1CC1)c1nc2ccccc2[nH]1 (stereo unspecified)	0.9%
N[C@@H]1[C@@H]2[C@@H]3C[C@H]4N(CC[C@@]14C(=O)C(=O)O)CC3=CCO[C@@H]2CC(=O)O	3.2%[11.4 µM]
CC(=O)CC1(C)OC(N)=C(C#N)C1(C#N)C#N (stereo unspecified)	99.3%[activator]
COC(=O)CSc1nnc(-c2cccc(NC(=O)c3ccc(C)cc3)c2)n1C	1.1%
COC(=O)CC1Oc2ccccc2N(Cc2ccc(C)cc2)C1=O (stereo unspecified)	-12.8%
COC(=O)CNC(=O)C1(CC(C)C)C=CCN1C(=O)c1ccccc1 (stereo unspecified)	-7.8%
Cc1ccc(S(=O)(=O)N(c2cccc(C(F)(F)F)c2)C2C=CS(=O)(=O)C2)cc1 (stereo unspecified)	11.1%
CCC(C)NS(=O)(=O)c1ccc(OCC(=O)NCc2ccco2)cc1 (stereo unspecified)	2.3%
Cc1cc(Cc2cc(Cc3cc(C)cc(C(C)(C)C)c3O)c(C)cc2C)c(O)c(C(C)(C)C)c1	-11.1%[11.4 µM]
NCCc1ccn[nH]1	-7.5%[25.6 µM]
COC(=O)C12CC3(CCC4C5C(C(OCc6ccccc6)C41)C52)OCCO3 (stereo unspecified)	1.2%[11.4 µM]
O=C(NCCc1ccccc1)NC1CCCCC1	6.7%
CON(C)C(=O)c1nnc2c3ccccc3n(S(=O)(=O)c3ccc(C)cc3)c2n1	-6.5%&-7.7%[11.4 µM]
Cc1ccc(-n2c(SCC(=O)NCC3CCCO3)nnc2-c2ccoc2C)cc1 (stereo unspecified)	2.7%
COc1ccc(Oc2ncc3nc(C)c(=O)n(CCC#N)c3n2)cc1	-27.5%
